# Screening results: PubChem BioAssay, PCMD
# Biofilm kill mix – mixture kills Candida albicans biofilm cells | inhibition, % at 7.6 µM | C. albicans biofilm persisters + clotrimazole, fluorescence viability; primary screen in compound mixtures of four per well | 0.02% of 120,000 active | AID 1242;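 active = inhibition above 30.3% in the primary screen of four-compound pools, then above 30% when the compound was retested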;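 also: compounds exposed to preformed 24 h biofilms for 48 h; the number belongs to the whole pool; some results filed as inactive read as strong as hits; inactives centre near 12; 0% = biofilm with clotrimazole alone and 100% = kill control; retested singly at about 60 µM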
#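 Test system: C. albicans CAF4-2 wild-type biofilms; buffer or medium: RPMI/MOPS medium, pH 7.0; schedule: 24 h biofilm formation, then 48 h compound exposure, 37 °C; detection: Alamar Blue fluorescence; measure: percent inhibition of biofilm viability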
# * = called active by the depositor. Not all compounds are listed; the hit share may differ from the screen's.
SMILES,Biofilm kill mix
CC1(C)Cc2c(sc3c2c(=O)n(-c2cccc(Cl)c2)c(=O)n3CC(N)=O)CO1,26
COC(=O)N/N=C(\C)c1ccc2ccccc2c1OC(F)F,10
Cc1cc(C)cc(OC(=O)CCN2C(=O)C3C4C=CC(C5CC45)C3C2=O)c1 (stereo not drawn),3
CCc1c(C)nc2ccc(Br)cc2c1SCCC#N,15
CC(C)CCNC(=O)c1cc(S(=O)(=O)N2CCCCC2)ccc1N1CCOCC1,9
O=C(N/N=C/c1ccc[nH]1)c1cc(-c2cccs2)nc2ccccc12,15
COc1ccccc1/C=N/NC(=O)C(=O)Nc1ccccc1OC(F)(F)C(F)F,15
CCCC(=O)Nc1cc(C(=O)O)ccc1S(=O)(=O)c1ccc(C)cc1,14
CCOC(=O)C1(CC2CCCCO2)CCN(Cc2ccc(OC)cc2F)CC1 (stereo not drawn),14
O=c1oc2ccccc2c(N2CCCCC2)c1[N+](=O)[O-],8

# Brought forward from above: two entries, followed by the next part.
SMILES,Biofilm kill mix
CCOC(=O)C1(CC2CCCCO2)CCN(Cc2ccc(OC)cc2F)CC1 (stereo not drawn),14
O=c1oc2ccccc2c(N2CCCCC2)c1[N+](=O)[O-],8
Cc1cc(Br)cc(C)c1NC(=O)c1ccccc1[N+](=O)[O-],4
Cc1ccc(C(=O)OCC(=O)c2cc(C)n(CC3CCCO3)c2C)cc1 (stereo not drawn),14
O=C(Nc1ccc(N2CCOCC2)c(Cl)c1)c1ccc(Cl)cc1,16
O=C(NCC1CCCO1)C(=O)NCC(c1ccco1)N1CCN(c2ccccc2)CC1 (stereo not drawn),15
CC(C)NC(=O)COC(=O)c1cncc(Br)c1,10
COc1ccc2[nH]c3c(=O)n(CCCCCC(=O)NCCC(C)C)c(=S)[nH]c3c2c1,15
Cc1ccc(C2NC(C(=O)O)CS2)cc1 (stereo not drawn),23
CC1=NC(C)(C)Cc2cc(C)c(C)cc21,6
O=C(Cn1c(O)c(N=NC(=O)c2ccncc2)c2ccccc21)Nc1ccccc1,23
NC1=NC2(CCCC2)n2c(nc3ccccc32)N1,15
CCOc1ccccc1N1CCN(S(=O)(=O)c2cc(C)ccc2OC)CC1,15
Cn1cc(Br)c(C(=O)N/N=C/c2cccc(OC3CSC3)c2)n1,14
COC(=O)c1cc2c(C)[nH]c(C)c2cc(C(=O)OC)c1=O,6
CC(C(=O)NCC1CCCCC1)N1CCN(S(=O)(=O)c2ccccc2F)CC1 (stereo not drawn),16
N=c1ccn(CC(=O)c2ccc(-c3ccccc3)cc2)cc1,4
COc1ccc(S(=O)(=O)N2CCC(C(=O)OCC(=O)c3ccccc3)CC2)cc1[N+](=O)[O-],3
COc1ccccc1OCCNC(=O)Nc1ccc(Br)cc1,13
Cc1cc(C)c2cc(C)c(SCC(=O)NCc3ccco3)nc2c1,28
N#C/C(=N\Nc1ccc(S(=O)(=O)N2CCc3ccccc32)cc1)C(N)=S,17
CN(c1ccc(OCC(=O)OCC(=O)NCc2ccco2)cc1)S(=O)(=O)c1ccc2ccccc2c1,9
COc1cc(/C=C2\S/C(=N/S(=O)(=O)Cc3ccccc3)NC2=O)c([N+](=O)[O-])cc1OC,19
O=C(NCC1CCCO1)/C(=C\c1cccc([N+](=O)[O-])c1)NC(=O)c1ccccc1 (stereo not drawn),6
Cn1cccc1C(=O)c1cccc([N+](=O)[O-])c1,5
O=C(Cc1ccccc1)N1CCN(C(=O)c2ccco2)CC1,16
Cc1cnc(C(=O)Nc2cccc(S(=O)(=O)N(C)C)c2)cn1,21
C=CCn1c(-c2ccc(Cl)cc2)cnc1SC(C)C(=O)NC(N)=O (stereo not drawn),6
COc1ccc(CC(=O)N2CCN(S(=O)(=O)c3cccs3)CC2)cc1OC,12
OCCSc1nc(-c2ccccc2)nc2ccc(F)cc12,21
Cc1cc(C)n2cc(CSc3nc4ccccc4[nH]3)nc2n1,10
COc1ccc(C2CC(c3ccc(Br)cc3)=NN2C(=S)Nc2ccccc2)cc1 (stereo not drawn),7
CC(=O)Nc1ccc(OS(=O)(=O)c2ccc(C(C)(C)C)cc2)cc1,26
O=C(CSc1n[nH]c(-c2cccnc2)n1)OC1CCCCC1,15
COc1cc(NC(=O)c2ccc3c(c2)OCO3)ccc1NC(=O)c1ccco1,9
Cc1c(O)c2cccnc2[nH]c1=O,9
O=C(COC(=O)CNC(=O)c1ccccc1)Nc1nc(-c2ccccc2)cs1,5
COCCN(C(=S)Nc1ccc(OC)cc1)C1CCN(C(C)=O)CC1,17
O=C(OCC1OC2OC3(CCCCC3)OC2C2OC3(CCCCC3)OC12)c1ccccc1 (stereo not drawn),17
CS(=O)(=O)NCCCCCCNS(C)(=O)=O,16
O=C(Cn1ccccc1=O)c1ccc(Cl)cc1,9
COC(=O)c1cccc(NC(=O)Nc2ccc(Cl)cc2)c1,19
S=c1[nH]nc(NCCCN2CCOCC2)s1,19
COc1ccccc1CNC(=O)/C=C/c1ccc(S(=O)(=O)N2CCOCC2)cc1,8
COC(=O)c1ccc(C(C(=O)NC2CCCCC2)N(CCc2ccccc2)C(=O)Cc2cccs2)cc1 (stereo not drawn),6
CN(C)/C=C/c1onc(-c2c(Cl)cccc2Cl)c1C#N,6
CCN1CCN(Cc2ccc(NC(=O)c3ccc(C)c(NC(=O)c4c[nH]c5cc(C(F)(F)F)ccc5c4=O)c3)cc2C(F)(F)F)CC1,20
CC1=NNC(=O)C1C(c1ccccc1)C1C(=O)NN=C1C (stereo not drawn),4
COc1ccc2cc(/C=N/NC(=O)CN(c3ccccc3)S(=O)(=O)c3ccccc3)c(Cl)nc2c1,12
C/C(=N\NC(N)=S)C1(C)CCCCC1,10
CCOC(=O)N1CCC(NC(=O)C2CCN(C(=O)c3cc4oc(C)cc4n3Cc3c(F)cccc3Cl)CC2)CC1,-5
O=C(Cc1ccccc1Cl)N1CCN(c2ncccn2)CC1,18
# Next part:
SMILES,Biofilm kill mix
CC(C)c1csc(CN2CCC(N3CCC(C(=O)NCC4CCCO4)CC3)CC2)n1 (stereo not drawn),9
CS(=O)(=O)Nc1ccc(C2=NN(S(C)(=O)=O)C(c3ccc4nccnc4c3)C2)cc1 (stereo not drawn),15
COc1ccc2c(c1)c1ncn(Cc3ccc(F)cc3)c(=O)c1n2C,19
Cn1c(O)c(C2=c3ccccc3=NC2=O)[nH]c1=S,5
CCOC(=O)CSc1nc(C)c(CC)c(C)c1C(N)=O,2
CC(C1CC1)N(Cc1ccccc1)C(=O)NC(=O)c1cccc(F)c1 (stereo not drawn),-2
CCN(CC)C(=O)/C(=C\c1ccncc1)NC(=O)c1ccccc1,17
CCN(CC(=O)NCc1cccs1)S(=O)(=O)c1ccc(NC(C)=O)cc1,13
COc1ccc(N(CC(=O)NCc2ccc(C)cc2)S(=O)(=O)c2c(C)nn(C)c2C)cc1,9
COC(=O)c1ccccc1NC(=S)N(Cc1ccc2c(c1)OCO2)Cc1cc2ccc(C)cc2[nH]c1=O,8
Cc1ccccc1S(=O)(=O)/N=C(/c1ccccc1)N1CCOCC1,3
O=C(Nc1ccc(Cl)cc1)C1CC2CCCC(C1)C2=O (stereo not drawn),18
O=C(NCCC1=CCCCC1)C(=O)NCC1OCCCN1S(=O)(=O)c1cc(F)ccc1F (stereo not drawn),6
CCCNC(=O)CCCCn1c(=S)[nH]c2c([nH]c3ccc(OC)cc32)c1=O,10
C[C@]1(C(=O)NCc2cc(F)cc(C(F)(F)F)c2)C=C[C@@H](Cc2ccccc2)N1C(=O)c1ccccc1,7
CC1=CC2=NC(=O)/C(=C/c3cccs3)C(=N)N2O1,14
CC(C)[C@@H](C(=O)N1CCNCC1)n1cc(CCO)nn1,14
Cc1ccc(NC(=S)N2CCN(c3ncccn3)CC2)c(C)c1,7
Cn1nc(C(=O)NCCc2ccc(S(N)(=O)=O)cc2)c2ccccc2c1=O,8
Cc1[nH][nH]c(=O)c1C(c1cc([N+](=O)[O-])ccc1O)c1c(C)[nH][nH]c1=O,7
O=C(COC(=O)c1cncc(Br)c1)NC1CCCCC1,7
O=C1/C(=C/c2ccncc2)SC(=S)N1Cc1ccccc1,12
O=S(=O)(Cc1ccccc1)Cc1cnc(Cl)s1,-1
Cc1ccc(S(=O)(=O)NNC(=O)c2ccncc2)cc1,-14
COC(=O)c1ccccc1NC(=O)Nc1cc(C)ccn1,6
CCN1CCN(C(=S)Nc2ccc(Cl)c(Cl)c2)CC1,22
COc1ccc(NC(=O)COC(=O)c2ccc(OCc3ccc(Cl)cc3Cl)c(OC)c2)c(OC)c1,4
Cc1ccc(C)c(NC2=C(Cl)C(=O)OC2OC(C)C)c1 (stereo not drawn),12
Cc1ccc(NC(=O)CSc2nnc(C)n2CC2CCCO2)cc1 (stereo not drawn),15
Cc1ccc(N2CCN(S(=O)(=O)c3ccc4c(c3)n(C)c(=O)c(=O)n4C)CC2C)cc1 (stereo not drawn),15
Cc1nc2nc(C)c(CCC(=O)NCCCN3CCN(c4cccc(Cl)c4)CC3)c(C)n2n1,3
COc1ccc(CCNC(=O)CC2SC(=NCCc3ccccc3)NC2=O)cc1OC (stereo not drawn),-4
N#CCN1CCC(c2cc(-c3ccco3)n[nH]2)CC1,-3
Cc1ccc(NC(=O)CCC2CC(C)(C)OC2=O)cc1 (stereo not drawn),20
C#CCOC(=O)Nc1cc(C)n(-c2ccccc2)n1,26
O=C(NNS(=O)(=O)c1ccc(Cl)cc1)c1cc(-c2ccccc2)n[nH]1,10
COc1ccccc1Oc1ccc(NC(=O)c2ccc(Cl)cc2)cc1,11
COc1ccccc1N1CCN(/N=C/c2cc([N+](=O)[O-])ccc2Cl)CC1,10
O=C(O)/C(=C\c1ccc(Cl)cc1)c1ccc(F)cc1,14
Cc1oc(-c2ccccc2Cl)nc1CN1CCCCC1c1cccnc1 (stereo not drawn),24
Cc1c(NC(=O)CN2CCN(c3ccc(O)cc3)CC2)c(=O)n(-c2ccccc2)n1C,15
COc1ccc(-c2ccnc3c(C(=O)O)cnn23)cc1,33
O=C(CNCc1ccc(F)cc1)Nc1ccccc1[N+](=O)[O-],9
COc1ccc2cc(C(=O)C3CCCN(C(=O)/C=C/c4ccccn4)C3)ccc2c1 (stereo not drawn),10
Cc1ccc(C)c(N2CCN(C(=O)CN3C(=S)NC(C)(C)CC3C)CC2)c1 (stereo not drawn),5
O=C(NC1C=CS(=O)(=O)C1)c1ccccc1 (stereo not drawn),8
CCOc1ncccc1C(=O)OCC(=O)N(CC)c1ccccc1,9
O=C(O)c1ccc2c(c1)C(=O)/C(=C/c1ccccc1)C2=O,10
CC(=O)c1ccc(NC(=S)Nc2cccc(Cl)c2C)cc1,0
Cc1ccc(C(=O)CNc2ccccc2C)cc1,13
# The list goes on.
SMILES,Biofilm kill mix
CCNC(=O)CSc1nc(-c2ccc(F)cc2)cs1,13
CN(c1ccccc1)c1ccc(/C=C(\C#N)c2nnc3n2CCCCC3)cc1[N+](=O)[O-],13
CNc1ccccc1C(=O)OC,-1
O=C(NCc1ccccn1)C1CC(c2ccccc2O)=NO1 (stereo not drawn),29
CCN(CC)CCC(c1cc(OC)c(OC)c(OC)c1)c1c(OC)cc(OC)c2ccc(=O)oc12 (stereo not drawn),11
O=C(CC1C(=O)NCCN1Cc1c(F)cccc1Cl)NCc1ccccc1 (stereo not drawn),12
NS(=O)(=O)c1ccc(NS(=O)(=O)c2ccc(NC(=S)Nc3ccccc3)cc2)cc1,5
Cn1c(=O)c2c(c3ccccc31)OC(=O)CC2c1cccnc1 (stereo not drawn),5
O=S(=O)(c1cnc(Cl)c(Cl)c1)N1CCCc2ccccc21,15
COc1ccc(Br)cc1S(=O)(=O)NCc1ccccc1,11
CCOC(=O)C1(CCCc2ccccc2)CCN(C2CCSCC2)CC1,5
CCn1c(C)nc2cc(C(=O)N/N=C/c3ccccc3)ccc21,2
COc1cccc(-c2ccc(C#N)c(SCC(=O)NCCc3ccc(Cl)cc3)n2)c1,22
O/N=C\c1cccn1-c1nccs1,5
COc1cc(/C=C2/C(=O)NN(c3ccc(Cl)cc3)C2=O)ccc1OC(=O)c1ccco1,14
CCC(=O)N(CCc1ccc(S(N)(=O)=O)cc1)C1CC(=O)N(c2ccc(OC)cc2)C1=O (stereo not drawn),8
CCN1C(=O)/C(=C2/Sc3ccccc3N2CCCS(=O)(=O)O)SC1=S,6

# Of the compounds above, these have an NH in an aromatic ring.
SMILES,Biofilm kill mix
O=C(N/N=C/c1ccc[nH]1)c1cc(-c2cccs2)nc2ccccc12,15
COc1ccc2[nH]c3c(=O)n(CCCCCC(=O)NCCC(C)C)c(=S)[nH]c3c2c1,15
COC(=O)c1cc2c(C)[nH]c(C)c2cc(C(=O)OC)c1=O,6
Cc1cc(C)n2cc(CSc3nc4ccccc4[nH]3)nc2n1,10
O=C(CSc1n[nH]c(-c2cccnc2)n1)OC1CCCCC1,15
Cc1c(O)c2cccnc2[nH]c1=O,9
S=c1[nH]nc(NCCCN2CCOCC2)s1,19
CCN1CCN(Cc2ccc(NC(=O)c3ccc(C)c(NC(=O)c4c[nH]c5cc(C(F)(F)F)ccc5c4=O)c3)cc2C(F)(F)F)CC1,20
Cn1c(O)c(C2=c3ccccc3=NC2=O)[nH]c1=S,5
COC(=O)c1ccccc1NC(=S)N(Cc1ccc2c(c1)OCO2)Cc1cc2ccc(C)cc2[nH]c1=O,8
CCCNC(=O)CCCCn1c(=S)[nH]c2c([nH]c3ccc(OC)cc32)c1=O,10
Cc1[nH][nH]c(=O)c1C(c1cc([N+](=O)[O-])ccc1O)c1c(C)[nH][nH]c1=O,7
N#CCN1CCC(c2cc(-c3ccco3)n[nH]2)CC1,-3
O=C(NNS(=O)(=O)c1ccc(Cl)cc1)c1cc(-c2ccccc2)n[nH]1,10
